# AF4-AF9 inh – inhibitors of human MLL-AF4/AF9 interaction; AlphaScreen, biotin-AF4 peptide binding to FLAG-AF9; AID 651704; P42568; hit rate 0.47% among 350,000; inhibition, % at 10 µM;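 active = every replicate reaching a set inhibition limit, whatever the replicate mean, cut at about 25% in these data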;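 also: 0% = plate neutral control median and 100% = total signal loss; the record names both 10 and 1 µM as test concentration; the first replicate is given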
# Target sequence (P42568 whole entry, looked up): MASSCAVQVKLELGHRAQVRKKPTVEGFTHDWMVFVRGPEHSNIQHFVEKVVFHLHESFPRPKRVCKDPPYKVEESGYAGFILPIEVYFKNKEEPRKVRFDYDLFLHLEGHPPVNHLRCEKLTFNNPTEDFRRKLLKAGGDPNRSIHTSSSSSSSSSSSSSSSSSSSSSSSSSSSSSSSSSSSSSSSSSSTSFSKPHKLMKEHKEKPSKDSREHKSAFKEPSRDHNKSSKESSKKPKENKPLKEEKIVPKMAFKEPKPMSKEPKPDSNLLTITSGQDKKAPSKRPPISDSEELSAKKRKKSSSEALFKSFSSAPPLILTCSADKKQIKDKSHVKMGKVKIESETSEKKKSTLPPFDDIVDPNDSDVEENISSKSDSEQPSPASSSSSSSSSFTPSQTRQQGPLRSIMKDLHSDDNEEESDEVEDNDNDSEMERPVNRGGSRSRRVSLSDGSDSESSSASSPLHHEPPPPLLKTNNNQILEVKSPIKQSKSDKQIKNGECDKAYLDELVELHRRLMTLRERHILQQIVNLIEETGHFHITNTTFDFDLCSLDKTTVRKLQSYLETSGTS
# Ecoli rRNA inh – inhibitors of bacterial rRNA selective over humanized ribosomes; AID 720706; E. coli WT GFP vs humanized-ribosome RFP mutants, fluorescence, 24 h; stronger effect = lower value; DMSO median 0, no signal -100; GFP signal change (wild-type ribosome), % (concentration not given with the values); hit rate 1.6% among 350,000;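 active = significant combined selectivity score with lowered wild-type GFP, culture density cut under 30%, mutant RFP and density less affected; inactive = any of these conditions unmet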; also: one replicate is shown; some compounds called inactive have numbers as strong as hits
# FGF22 binding – FGF22 (human) thermal shift binding. recombinant FGF22 thermal shift, SYPRO orange fluorescence; percent of sucrose octasulfate shift, DMSO zero. calls only at 9.99 µM. hit rate 1.5% among 340,000;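 active = melting point raised past a set limit in the mean and every replicate; three in four hits are not shown here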
# Target sequence (Q9HCT0 whole entry, looked up): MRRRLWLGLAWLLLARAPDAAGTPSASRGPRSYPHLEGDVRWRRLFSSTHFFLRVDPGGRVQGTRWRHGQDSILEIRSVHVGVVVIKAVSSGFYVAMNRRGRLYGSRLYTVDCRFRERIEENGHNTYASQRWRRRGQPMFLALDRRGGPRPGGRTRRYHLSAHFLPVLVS
# Ecoli rRNA inh OD600 – also measured in Ecoli rRNA inh; calls as there; OD600 change, %; measured here: OD600 growth;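 optical density of the mix in the first replicate; 0 = DMSO median and -100 = no signal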
# Ecoli rRNA inh RFP – recorded beside Ecoli rRNA inh, whose call it bears; RFP signal change, %; measured here: RFP humanized mutant strains;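 first replicate; 0 = DMSO median and -100 = no signal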
# * hit, by the source's call; i = inactive; / = not tested or not shown; + = active, no number. A portion of the library. The share of hits here may be higher or lower than overall.
SMILES,AF4-AF9 inh,Ecoli rRNA inh,Ecoli rRNA inh OD600,Ecoli rRNA inh RFP,FGF22 binding
CCCN1C[C@@H](C)[C@@H](OC)CN(C)C(=O)c2cc(NC(=O)Nc3c(C)noc3C)ccc2OC[C@H]1C,-1.7,4,6,-3.6,i
C[C@@H]1CN([C@H](C)CO)C(=O)c2cc(C#CC3CCCCC3)cnc2O[C@@H]1CN(C)C(=O)C1CCCCC1,5.2,10,12,1.1,i
O=C1N[C@H](Cc2ccccc2)COCc2cn(nn2)CC[C@@H]1Cc1ccccc1,0.1,2,-3,1.7,i
Cc1cc(NC(=O)c2ccc3sc([C@@H]4O[C@H](CO)[C@H](O)[C@H](O)[C@H]4O)nc3c2)no1,-5.5,5,12,-1.6,i
C[C@H]1CN([C@@H](C)CO)C(=O)c2cccc(NC(=O)C3CCCCC3)c2O[C@@H]1CN(C)Cc1ccc(C(=O)Nc2ccccc2N)cc1,2.1,-2,-5,0.3,i
COc1ccc(NC(=O)N[C@H]2CC[C@@H](CCn3cc(-c4ccc(OC)cc4)nn3)O[C@@H]2CO)cc1,1.0,-4,-6,0.4,+
COC(=O)c1c(C)[nH]c(C(=O)COC(=O)CCc2ccc(OC)c(OC)c2)c1C,-2.7,11,12,0.9,i
COc1ccc(C(CNC(=O)CNC(=O)c2cccc(F)c2)N2CCOCC2)cc1 (centres undefined),0.7,2,10,1.7,i
CO[C@@H]1CC[C@H]2CCOc3ccc(C#N)cc3C(=O)N(C)CCCC(=O)N(C)C[C@@H]1O2,-0.1,-2,-5,-4.7,i
C/C=C/c1ccc2c(c1)O[C@@H](CN(C)CC1CCOCC1)[C@H](C)CN([C@@H](C)CO)S2(=O)=O,5.1,-5,-3,-0.9,i
CC(=O)Nc1cncc(-c2cnn(CC(C)C)c2)n1,1.7,8,22,-0.4,i
CCCNC(=O)Nc1ccc2c(c1)C(=O)N(C)[C@H]1CC[C@H](CC(=O)NCC3CCCCC3)O[C@H]1CO2,-5.3,-5,-2,0.7,i
COC(=O)CC#C[C@@H](C)[C@H](NS(=O)(=O)c1ccc(C)cc1)C(C)(C)C,-1.8,1,4,2.4,/
CN(C)C(=O)C[C@@H]1CC[C@@H]2[C@H](COC[C@@H](O)CN2Cc2nccs2)O1,-4.8,4,2,4.6,i
O=C(Nc1ccccc1Cl)O/N=C/c1ccc(F)cc1,1.6,10,7,1.4,i
COc1ccc(-c2ccc([C@@H]3[C@H]4CN(C(=O)C5CC5)CC(=O)N4[C@H]3CO)cc2)cc1,-3.1,-1,4,-2.5,i
CN1C(=O)c2cc(NC(=O)Nc3ccccc3F)ccc2OC[C@@H]2O[C@@H](CC(=O)NCc3ccc(-c4ccccc4)cc3)CC[C@@H]21,-1.5,1,6,1.6,i
COC(=O)C[C@@H]1CC[C@@H]2[C@@H](COc3ccc(NC(=O)Nc4ccc(C)cc4)cc3C(=O)N2C)O1,-0.7,0,-9,0.8,i
CCCNC(=O)N1C[C@@H](C)[C@@H](OC)CN(C)C(=O)c2ccc(NS(C)(=O)=O)cc2OC[C@H]1C,-4.9,3,0,-1.0,i
CCOC(=O)C1=CCN(S(=O)(=O)c2ccc(Br)cc2)C1c1ccc(Br)cc1 (centres undefined),0.3,-2,-16,-4.2,i
CNC[C@H]1Oc2ccc(NC(=O)CCC(F)(F)F)cc2C(=O)N([C@@H](C)CO)C[C@H]1C,-3.9,3,10,-1.7,i
COc1cccc(S(=O)(=O)N(C)C[C@H]2Oc3ncc(C#CC(C)C)cc3C(=O)N([C@H](C)CO)C[C@H]2C)c1,-0.8,-1,-8,0.4,i
Cc1noc(C)c1NC(=O)Nc1ccc2c(c1)C(=O)N([C@@H](C)CO)C[C@@H](C)[C@H](CN(C)C(=O)Nc1ccc(C(F)(F)F)cc1)OCCCC[C@H](C)O2,-3.2,0,8,0.9,i
CCCC#Cc1ccc2c(c1)O[C@@H](CN(C)C(=O)CC)[C@H](C)CN([C@@H](C)CO)S2(=O)=O,2.9,-2,-9,-2.3,i
COc1ccc(-c2ccc([C@H]3[C@@H](CO)N(C(=O)C4CCOCC4)[C@H]3C#N)cc2)cc1,-1.6,0,-1,3.3,i
# More structures
SMILES,AF4-AF9 inh,Ecoli rRNA inh,Ecoli rRNA inh OD600,Ecoli rRNA inh RFP,FGF22 binding
CCOC(=O)C1(C(=O)OCC)C(C)CC(=O)N1c1ccccc1OC (centres undefined),-1.4,0,6,-5.0,i
COc1ccccc1CNS(=O)(=O)CCNC1CCCCC1,0.2,3,16,-3.1,i
C=CCN=C1NC(c2ccccc2C(F)(F)F)C(C(=O)OC)=C(C)N1Cc1ccccc1C(F)(F)F (centres undefined),1.6,-8,-34,5.3,i
Cc1noc(C)c1NC(=O)N(C)C[C@H]1Oc2c(NS(=O)(=O)c3ccccc3)cccc2C(=O)N([C@@H](C)CO)C[C@@H]1C,1.0,-1,1,-2.1,i
Cc1cccc(S(=O)(=O)N(C)C[C@H]2OCc3ccccc3-c3c(n(C)c4ccccc34)C(=O)N([C@@H](C)CO)C[C@@H]2C)c1,-4.2,2,7,-3.0,i
COc1ccc(S(=O)(=O)Nc2ccc3c(c2)C(=O)N([C@@H](C)CO)C[C@H](C)[C@@H](CN(C)Cc2ccncc2)OCCCC[C@@H](C)O3)cc1,2.4,-3,-6,3.0,i
CCCCN(C(=O)CC1CCCCC1)c1c(N)n(CCCC)c(=O)[nH]c1=O,1.2,21,14,2.0,i
Cn1c(=O)c2c(-c3ccccc3)n(-c3ccccc3Br)cc2n(C)c1=O,1.7,0,7,7.0,i
CC(C)CC#Cc1ccc2c(c1)O[C@@H](CN(C)C(=O)Cc1ccncc1)[C@@H](C)CN([C@@H](C)CO)S2(=O)=O,2.7,3,-21,7.3,i
C[C@@H]1CN([C@@H](C)CO)C(=O)c2cc(C3=CCCCC3)cnc2O[C@H]1CN(C)C(=O)CN1CCOCC1,-5.5,4,5,-2.4,i
Cc1nc2ccc(C(=O)N3CCN(C(=O)c4ccco4)CC3)cn2c1N(C)C(=O)CCc1ccccc1,-1.9,0,3,0.2,i
C[C@@H]1CN([C@H](C)CO)C(=O)CCCn2nncc2CO[C@@H]1CN(C)Cc1ccc(-c2ccccc2)cc1,5.8,-2,-4,7.2,i
C[C@@H]1CN([C@H](C)CO)C(=O)c2cccc(NS(=O)(=O)c3ccccc3)c2O[C@@H]1CN(C)C(=O)NC1CCCCC1,-0.1,1,6,-1.1,i
CCN(C[C@H]1[C@H](c2ccc(-c3cccnc3)cc2)[C@@H](CO)N1C(C)=O)C(C)=O,-3.0,2,-6,-0.8,i
C[C@H]1CN([C@@H](C)CO)C(=O)Cc2cc(NS(=O)(=O)c3cccs3)ccc2O[C@H]1CN(C)S(C)(=O)=O,-1.6,4,5,-0.9,i
C[C@@H]1CN([C@@H](C)CO)C(=O)c2cccc(NC(=O)C3CCOCC3)c2O[C@@H]1CN(C)C(=O)Nc1cccc2ccccc12,-3.1,1,1,1.4,i
CCCNC(=O)Nc1ccc2c(c1)OC[C@H](C)N(C(=O)C1CCOCC1)C[C@@H](C)[C@@H](OC)CN(C)C2=O,-7.8,0,5,-2.1,i
CCCN1[C@@H]2c3ccc(C4=CCCC4)c(=O)n3C[C@@H]2[C@@H](CO)[C@@H]1C(=O)OC,-1.9,4,-1,1.2,i
CC(C)COC(=O)N1CCCC(c2cc(C(=O)Nc3ccccc3Cl)no2)C1 (centres undefined),0.6,4,-15,2.0,i
COc1ccc(S(=O)(=O)Nc2ccc3c(c2)CC(=O)N([C@@H](C)CO)C[C@H](C)[C@H](CN(C)C(=O)Nc2ccc4c(c2)OCO4)O3)cc1,0.0,4,10,-0.4,i
C[C@@H](O)C#Cc1cnc2c(c1)C(=O)N([C@@H](C)CO)C[C@H](C)[C@@H](CN(C)C(=O)c1ccc(F)cc1)O2,-4.7,4,-4,-0.4,i
C[C@H](NC(=O)C[C@H]1CC[C@@H]2[C@H](COC[C@H](O)CN2C)O1)c1ccccc1,-3.0,3,3,3.8,i
CCCNC(=O)C[C@@H]1CC[C@H]2[C@@H](COC[C@H](O)CN2CC2CCCCC2)O1,-3.4,3,7,-5.3,i
O=c1cnc2ccccc2n1Cc1ccccc1,-0.1,17,2,3.0,i
CC(C)NC(=O)N(C)C[C@H]1Oc2ccc(NS(=O)(=O)c3ccc(F)cc3)cc2CC(=O)N([C@@H](C)CO)C[C@H]1C,-0.3,1,-1,0.1,i
# Later entries:
SMILES,AF4-AF9 inh,Ecoli rRNA inh,Ecoli rRNA inh OD600,Ecoli rRNA inh RFP,FGF22 binding
O=C(N[C@@H]1CC[C@@H](CCNS(=O)(=O)c2ccc(F)cc2)O[C@@H]1CO)C1CCCC1,-2.4,-3,-2,2.2,i
C[C@H](CO)N1C[C@H](C)[C@H](CN(C)Cc2ccc3c(c2)OCO3)Oc2c(NC(=O)c3ccc(-c4nccs4)cc3)cccc2C1=O,-13,-4,-13,2.4,i
NC(=O)/C(=C\c1ccc([N+](=O)[O-])o1)c1ccco1,-1.6,-55,-78,-7.2,i
CC(C)CC#Cc1ccc([C@@H]2[C@H]3CN(S(=O)(=O)c4ccc(F)cc4)CCCCN3[C@H]2CO)cc1,2.3,6,20,7.4,i
C[C@@H]1CCCCO[C@@H](CN(C)S(=O)(=O)c2cccs2)[C@H](C)CN([C@@H](C)CO)C(=O)c2cc(NS(=O)(=O)c3cn(C)cn3)ccc2O1,-2.7,-1,2,-1.9,i
O=S1(=O)CC(N2CCCC2)CN1C1CCCCC1 (centres undefined),-0.4,24,13,0.2,i
CC=Cc1ccc2n(c1=O)C[C@H]1[C@H](CO)[C@@H](C(=O)NCCOC)[C@@H]2N1Cc1ccccc1 (mixture of isomers),1.1,1,0,-1.6,i
CO[C@H]1CN(C)C(=O)c2cc(NC(=O)C3CCC3)ccc2OC[C@@H](C)N(Cc2ccncc2)C[C@H]1C,-0.9,-1,0,-0.7,i
C[C@H](CO)N1C[C@H](C)[C@H](CN(C)S(=O)(=O)c2ccc(Cl)cc2)Oc2ccc(NC(=O)C3CCCCC3)cc2CC1=O,-0.1,0,-6,0.4,i
C[C@H]1CCCCO[C@@H](CN(C)C(=O)Nc2ccc3c(c2)OCO3)[C@@H](C)CN([C@@H](C)CO)C(=O)c2cc(NC(=O)Nc3ccc(C(F)(F)F)cc3)ccc2O1,0.9,2,8,-0.2,i
C[C@@H]1CN([C@@H](C)CO)C(=O)c2cc(NC(=O)Cc3cn(C)c4ccccc34)ccc2O[C@@H]1CN(C)Cc1ccc(Oc2ccccc2)cc1,2.1,3,-1,5.2,i
Cc1cc(C(=O)Nc2cccc3c2O[C@H](CN(C)C(=O)Nc2ccccc2)[C@@H](C)CN([C@H](C)CO)C3=O)n(C)n1,-3.1,2,6,-3.3,i
C[C@H](CO)N1C[C@H](C)[C@H](CN(C)Cc2ccc(C(=O)O)cc2)Oc2cc(C#CCC3CCCC3)ccc2S1(=O)=O,8.6,-3,-10,-1.3,i
C[C@H](CO)N1C[C@H](C)[C@H](CN(C)CC2CC2)Oc2cc(C#Cc3cccc(F)c3)ccc2S1(=O)=O,-0.2,-1,-5,3.6,i
C[C@@H]1CN([C@H](C)CO)C(=O)Cc2cc(NC(=O)NC3CCCCC3)ccc2O[C@@H]1CN(C)C,0.9,2,2,-1.2,i

# Part of the list above, with the structure last.
AF4-AF9 inh,Ecoli rRNA inh,Ecoli rRNA inh OD600,Ecoli rRNA inh RFP,FGF22 binding,structure
-1.6,-55,-78,-7.2,i,NC(=O)/C(=C\c1ccc([N+](=O)[O-])o1)c1ccco1
2.3,6,20,7.4,i,CC(C)CC#Cc1ccc([C@@H]2[C@H]3CN(S(=O)(=O)c4ccc(F)cc4)CCCCN3[C@H]2CO)cc1
-2.7,-1,2,-1.9,i,C[C@@H]1CCCCO[C@@H](CN(C)S(=O)(=O)c2cccs2)[C@H](C)CN([C@@H](C)CO)C(=O)c2cc(NS(=O)(=O)c3cn(C)cn3)ccc2O1
-0.4,24,13,0.2,i,O=S1(=O)CC(N2CCCC2)CN1C1CCCCC1 (centres undefined)
1.1,1,0,-1.6,i,CC=Cc1ccc2n(c1=O)C[C@H]1[C@H](CO)[C@@H](C(=O)NCCOC)[C@@H]2N1Cc1ccccc1 (mixture of isomers)
-0.9,-1,0,-0.7,i,CO[C@H]1CN(C)C(=O)c2cc(NC(=O)C3CCC3)ccc2OC[C@@H](C)N(Cc2ccncc2)C[C@H]1C
-0.1,0,-6,0.4,i,C[C@H](CO)N1C[C@H](C)[C@H](CN(C)S(=O)(=O)c2ccc(Cl)cc2)Oc2ccc(NC(=O)C3CCCCC3)cc2CC1=O
0.9,2,8,-0.2,i,C[C@H]1CCCCO[C@@H](CN(C)C(=O)Nc2ccc3c(c2)OCO3)[C@@H](C)CN([C@@H](C)CO)C(=O)c2cc(NC(=O)Nc3ccc(C(F)(F)F)cc3)ccc2O1
2.1,3,-1,5.2,i,C[C@@H]1CN([C@@H](C)CO)C(=O)c2cc(NC(=O)Cc3cn(C)c4ccccc34)ccc2O[C@@H]1CN(C)Cc1ccc(Oc2ccccc2)cc1
